Screens from PubChem BioAssay.
RanGTP-Imp inh: inhibitors of RanGTP-importin-beta interaction, primary screen, biochemical, FRET, CFP-Ran, YFP-importin-beta, homogeneous. inhibition, % (test concentration not listed). 300,000 tested, 1.1% active. cell-free CFP-Ran/YFP-importin-beta FRET ratio. AID 2216;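 active means most replicates above 15%; inconclusive means exactly half above 15%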;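 further: 0% = DMSO wells and 100% = Ran loaded with GDP instead of GTP; wells of about 40 µL received 100 nL stock; the first replicate is given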
AF4-AF9 inh: MLL-AF4/AF9 protein interaction inhibition. AlphaScreen, biotin-AF4 peptide binding to FLAG-AF9. inhibition, % at 10 µM. AID 651704. P42568. 350,000 tested, 0.47% active;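 active means every replicate reaching a set inhibition limit, whatever the replicate mean, cut at about 25% in these data; inconclusive means mean inhibition reaches that limit but some replicates miss it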;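 further: 0% = plate neutral control median and 100% = total signal loss; the record names both 10 and 1 µM as test concentration; the first replicate is given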
Target sequence (P42568 whole entry, looked up): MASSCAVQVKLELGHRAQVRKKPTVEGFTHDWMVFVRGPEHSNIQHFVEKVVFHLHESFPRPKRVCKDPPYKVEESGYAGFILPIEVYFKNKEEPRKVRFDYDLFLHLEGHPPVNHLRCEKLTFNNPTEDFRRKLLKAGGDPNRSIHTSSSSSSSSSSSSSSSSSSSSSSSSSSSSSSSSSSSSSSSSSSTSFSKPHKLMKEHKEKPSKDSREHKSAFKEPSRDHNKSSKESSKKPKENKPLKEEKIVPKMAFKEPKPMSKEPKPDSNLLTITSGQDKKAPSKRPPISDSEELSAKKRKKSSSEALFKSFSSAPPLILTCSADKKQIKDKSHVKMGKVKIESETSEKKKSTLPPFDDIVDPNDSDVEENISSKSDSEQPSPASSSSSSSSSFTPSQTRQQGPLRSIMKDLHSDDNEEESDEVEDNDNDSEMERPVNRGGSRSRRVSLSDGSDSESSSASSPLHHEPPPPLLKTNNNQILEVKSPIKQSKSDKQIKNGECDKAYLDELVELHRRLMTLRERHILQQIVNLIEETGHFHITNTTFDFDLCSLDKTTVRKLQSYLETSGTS
Calb FLC: affects C. albicans growth with fluconazole. C. albicans CaCi-2 (fluconazole-resistant clinical isolate) + fluconazole, Alamar Blue growth, 48 h. growth inhibition, % (concentration not given with the values). 300,000 tested, 0.57% active. AID 1979;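 active means most replicates above 75%; inconclusive means exactly half above 75%; inactive means most below 75%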;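 further: all wells also contain fluconazole at 8 µg/ml as a sub-toxic cotreatment; 0% = median of DMSO wells and 100% = median of geldanamycin control wells; wells of about 8 µL received 7.5 nL stock; the first replicate is given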
LANA-H2B inh: blocks KSHV LANA binding to histone H2A/H2B; 320,000 tested, 0.6% active; inhibition, % (no concentration beside the values); AID 2629; Q9QR71; cell-free LANA-H2A/H2B peptide, fluorescence polarization; in the data active means inhibition mostly above about 10%, no sharp cut-off; inactive means mostly below about 6.7%;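 further: stock transfer was 7.5 nL into about 10 µL; 0% = median of vehicle wells and 100% = median of positive control wells; one replicate is shown; the record names a cut of 25% in any replicate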
A1 inh: inhibitors of the anti-apoptotic protein A1, read as caspase activation; MEF A1-2A-BIM cells, Caspase-Glo 3/7 luminescence, 3 h; percent of clofoctol response, vehicle zero; caspase activation, % (no concentration beside the values); 330,000 tested, 0.066% active; AID 2462;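 active means over half of replicate activation scores above 10%, or exactly half above 10 with the replicate mean above 10; inconclusive means replicate mean below 10 yet half the replicates above 10; inactive means over half of replicates below 10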;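 further: wells of about 30 µL received 50 nL stock; many hits fall short of the cut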
Vif A3G: HIV-1 Vif–A3G interaction blockers – biochemical, TR-FRET, GST-Vif 1-94, biotin-A3G peptide, dose response retest, primary screen (AID 1117319); inhibition, %; hits with a dose series show IC50 in µM; 260,000 tested, 0.57% active; TR-FRET GST-Vif / biotin-A3G peptide binding; higher % means a stronger effect; test concentration not given here; strong numbers were not always called active;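 active means above the screen mean plus three standard deviations and confirmed in dose response; inconclusive means results disagree or hit not tested in dose response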;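 further: Vif residues 1-94 fused to GST binding biotinylated APOBEC3G peptide 110-148; 0% = full assay without inhibitor and 100% = GST in place of GST-Vif; retest series ran down from 100 µM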
Beta apoptosis: blocks beta cell apoptosis; INS-1E cytokine-induced death, ATP luminescence, 48 h; percent of positive-control rescue, neutral wells zero; protection from apoptosis, % (no concentration beside the values); 300,000 tested, 0.8% active; AID 435005;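 active means all replicates at 75% or more, or half of them and the mean; inconclusive means half reach 75% but not the mean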;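 further: 0% = cytokine-treated negative control wells and 100% = positive control rescue; higher means more ATP so stronger rescue from cytokine killing; wells of about 40 µL received 100 nL stock; the first replicate is given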
T cruzi inh: T. cruzi replication inhibition; 300,000 tested, 1.4% active; T. cruzi beta-gal in NIH3T3, luminescence, 90 h; inhibition, % (no concentration beside the values);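 active means mean inhibition across valid replicates above about 55%, limit read from the data; inconclusive means mean below that limit but half or more replicates reach it; inactive means mean below it, under half of replicates reach it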;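 further: signal also drops with host cell toxicity which is not excluded here; 0% = plate median of DMSO wells and 100% = zero luminescence signal; higher percent means less beta-gal luminescence so fewer parasites; stock transfer was 50 nL into about 50 µL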
The depositor's hits bear a star; ? = inconclusive; . = not tested or not shown.

SMILES	RanGTP-Imp inh	AF4-AF9 inh	Calb FLC	LANA-H2B inh	A1 inh	Vif A3G	Beta apoptosis	T cruzi inh
Cc1cc2c(cc1C)CN(c1ccccc1)C2	2.0	3.3	-3	-6.3	-6.6	?	6	22
Cc1cc(=O)[nH]c2c(N=Nc3ccc(O)cc3)c(N)nn12	-4.4	-2.0	6	.	.	8%	.	2
O=C(Nc1ccc2c(c1)OCCO2)c1cccc(S(=O)(=O)N2CCOCC2)c1	5.2	.	0	-0.5	-2.6	10%	5	1
COc1ccc(Br)cc1CNc1ccc(N2CCOCC2)cc1	-5.4	24	-13	-5.8	0.0	7%	3	24
COc1ccc(-n2c(C)cc(C(=O)COC(=O)Cc3n[nH]c(=O)c4ccccc34)c2C)cc1	0.1	3.9	-23	-2.5	-0.3	-2%	.	-6
Cc1nc(C(=O)NC2CC2)sc1C1(C)CC(c2ccccc2)=NO1 (stereo not given)	5.4	-2.8	-7	-1.6	-1.8	.	3	-7
O=C(c1ccc(N2CCOCC2)nc1)N1CCOCC1	-3.3	3.2	0	-1.1	-0.3	2%	-7	4
FC(F)(F)c1ccccc1-c1nc(-c2ccncc2)no1	11	-2.7	-4	-3.1	0.1	-11%	0	-12
O=C(COC(=O)c1ccc([N+](=O)[O-])o1)Nc1ncc(Cl)cc1Cl	.	0.4	.	8.1	-0.2	19%	-5	.
NC(=O)CN1CCCC1c1ccc2c(c1)OCCO2 (stereo not given)	?	-2.3	-18	2.7	0.5	.	-1	-1
O=C(c1ccc(Cl)s1)N1CCc2ccccc21	-2.3	.	-20	1.7	-7.5	-3%	14	-20
O=C(CSc1nn(-c2ccc(Cl)cc2)c(=S)s1)NCC1CCCO1 (stereo not given)	1.7	-7.7	40	-1.2	0.3	3%	-5	-13
Cc1ccc(CS(=O)(=O)Cc2ccc(C(=O)NCCc3ccccc3)o2)cc1	-1.2	0.3	3	-2.0	-0.1	.	-6	-3
CC(=O)N/C(=C\c1cccc([N+](=O)[O-])c1)C(=O)NC(C)C	1.1	11	0	1.7	0.1	-5%	-7	-19
O=C(c1cccc(F)c1)N1CCN(Cc2cccc(Br)c2)CC1	-3.2	1.5	-3	2.0	0.5	7%	1	1
COc1ccc(NC(=O)C2CCN(S(C)(=O)=O)CC2)cc1OC	-0.7	-2.0	-7	-2.0	1.0	.	2	-14
Cc1ccc(NC(=O)c2c(C(F)(F)F)nn(C)c2SCc2ccc(Cl)cc2)cc1C	?	.	12	3.5	-0.6	-7%	7	65*
CCc1cc(-c2n[nH]c(C)c2-c2ccccc2Cl)c(O)cc1OC	-1.3	3.5	86*	-2.8	1.8	.	13	5
CCOc1ccccc1OC(=O)c1ccco1	1.1	.	4	-1.5	0.4	7%	3	6
CCOc1nc(N=C(N)N)nc2c(C)cccc12	4.3	.	46	4.4	-0.3	-6%	48	43
Cc1ccc2oc(-c3cccc(NC(=O)c4cc(-n5cnnc5)ccc4Cl)c3)nc2c1	7.5	.	8	1.9	-0.9	25%	34	-5
CC(O)(CS(=O)(=O)Cc1ccccc1)C(=O)Nc1cccc(C(F)(F)F)c1 (stereo not given)	3.5	3.9	-7	-1.8	-0.6	-1%	-2	0
COc1ccc2c(c1)C1(C)CC(C)(C)N2C(=O)N1c1ccccc1 (stereo not given)	3.0	.	-10	2.3	-0.1	-2%	2	13
CCOC(=O)Cn1c(=O)c2c(nc3n2CCN3Cc2ccccc2)n(C)c1=O	11	.	-6	-3.0	0.3	57%	-3	10
COc1ccc(C2=NS(=O)(=O)N(C)C(C(=O)Nc3ccc4c(c3)OCO4)=C2)cc1OC	0.4	5.3	12	2.9	-0.5	.	3	4
Cc1ccc(NC2CC(C)NC(=S)N2)cc1 (stereo not given)	0.8	-9.4	-4	0.5	1.9	-5%	-7	-29
CC(C)Cn1c(O)c(/C=C2\C=NN=C2c2ccccc2)sc1=S	3.9	.	23	.	18*	-6%	-7	38
CCn1c(SCC(=O)NC2CCCCC2)nc2ccccc2c1=O	3.8	-1.8	-2	4.0	0.8	0%	-3	1
O=C1CCCC2=C1C1(CCCC1)N=C(Nc1nc3ccccc3s1)N2	0.9	.	17	6.6	0.1	-1%	11	-2
COc1ccc(CC(=O)NNC(=O)c2ccc(NC(C)=O)cc2)cc1	?	-1.8	-12	2.4	0.0	-6%	2	10

A draw from above in order of number of heavy atoms, low to high:
SMILES	RanGTP-Imp inh	AF4-AF9 inh	Calb FLC	LANA-H2B inh	A1 inh	Vif A3G	Beta apoptosis	T cruzi inh
CCOc1ccccc1OC(=O)c1ccco1	1.1	.	4	-1.5	0.4	7%	3	6
COc1ccc(NC(=O)C2CCN(S(C)(=O)=O)CC2)cc1OC	-0.7	-2.0	-7	-2.0	1.0	.	2	-14
CCc1cc(-c2n[nH]c(C)c2-c2ccccc2Cl)c(O)cc1OC	-1.3	3.5	86*	-2.8	1.8	.	13	5
O=C1CCCC2=C1C1(CCCC1)N=C(Nc1nc3ccccc3s1)N2	0.9	.	17	6.6	0.1	-1%	11	-2

New compounds follow
SMILES	RanGTP-Imp inh	AF4-AF9 inh	Calb FLC	LANA-H2B inh	A1 inh	Vif A3G	Beta apoptosis	T cruzi inh
Cc1cc(C)n2nc(SCc3cccc(S(=O)(=O)N(C)C)c3)nc2n1	-1.1	-2.4	3	-8.1	-0.1	1%	.	19
O=C1CCC(C(=O)OCC(=O)N2N=C3/C(=C/c4ccccc4)CCCC3C2c2ccccc2)N1 (stereo not given)	-0.6	.	0	0.5	-0.3	22%	-2	30
c1ccc(C2NCCc3ccccc32)cc1 (stereo not given)	-3.2	-2.1	-20	-4.0	1.5	-4%	0	-14
O=C(CSc1n[nH]c(-c2cccs2)n1)NCc1cccs1	-1.3	.	2	-3.5	-0.1	27%	0	-1
O=C(COC(=O)/C=C/c1ccccc1[N+](=O)[O-])NCc1ccco1	.	1.3	.	11	-0.2	7%	-11	.
O=C(c1ccc(-n2c(SCc3cccc(F)c3)nc3ccccc3c2=O)cc1)N1CCOCC1	-2.5	.	-3	3.4	0.5	24%	-7	44
O=C1Nc2cc(Cl)ccc2C1(N1CCNCC1)C(F)(F)F (stereo not given)	-0.2	.	-15	-0.1	0.7	9%	0	5
COc1ccc(N2CC(C(=O)OCC(=O)NCc3ccccc3)CC2=O)cc1 (stereo not given)	-5.6	3.0	-2	2.3	0.7	0%	6	8
Cn1nnnc1SCCNCc1cccnc1	-1.4	.	27	19	0.7	11%	5	1
CC1(C)N=C(c2cccs2)C(C)(C)N1O	-2.9	.	0	0.5	-0.3	0%	0	-12
Cc1cccc(NS(=O)(=O)c2ccc(C)c(C(=O)NCc3ccncc3)c2)c1	-1.8	-0.2	4	.	-0.5	11%	-3	3
CCCOC(=O)c1ccc(NC(=O)c2ccoc2C)cc1	1.6	.	6	3.5	-9.4	16%	7	18
Cc1ccc(S(=O)(=O)N(CC(=O)N2CCOCC2)c2ccccc2F)cc1	-2.5	-6.6	-5	0.6	0.0	.	-7	-6
CCOc1cc(C)cc2oc(=O)cc(-c3ccccc3)c12	-3.3	2.4	-3	-0.4	0.3	-2%	21	20
COc1ccc(NC(=O)CSc2ccccc2)cc1S(=O)(=O)N1CCCCC1	-1.2	2.2	0	-0.8	0.8	1%	-5	9

Exported field by field: 2 of the compounds above.
Cc1cccc(NS(=O)(=O)c2ccc(C)c(C(=O)NCc3ccncc3)c2)c1
  RanGTP-Imp inh = -1.8
  AF4-AF9 inh = -0.2
  Calb FLC = 4
  LANA-H2B inh = .
  A1 inh = -0.5
  Vif A3G = 11%
  Beta apoptosis = -3
  T cruzi inh = 3
CCCOC(=O)c1ccc(NC(=O)c2ccoc2C)cc1
  RanGTP-Imp inh = 1.6
  AF4-AF9 inh = .
  Calb FLC = 6
  LANA-H2B inh = 3.5
  A1 inh = -9.4
  Vif A3G = 16%
  Beta apoptosis = 7
  T cruzi inh = 18

Next records follow.
SMILES	RanGTP-Imp inh	AF4-AF9 inh	Calb FLC	LANA-H2B inh	A1 inh	Vif A3G	Beta apoptosis	T cruzi inh
O=C(c1ccco1)N1CCN(C/C=C/c2ccccc2)CC1	-0.8	.	8	-1.2	-0.3	?	.	-1
O=C(CCC1CCCN(C(=O)c2ccoc2)C1)NCc1ccc(F)c(F)c1 (stereo not given)	2.1	-0.8	17	2.2	0.2	-2%	-4	-6
COc1cccc(-n2nnc3c(=O)n(Cc4cccc(C)c4)cnc32)c1	-2.2	1.3	-1	0.5	-0.4	.	3	2
CCNc1nc(N)nc(-c2cc(Cl)ccc2OC)n1	-1.5	.	3	-0.5	0.7	20%	-5	-3
C=CCc1cccc(/C=N/NC(=O)C(C)Nc2ccc(C)cc2)c1O (stereo not given)	1.5	-1.8	1	7.6	-0.1	.	72	49
COc1ccc(N2CCN(C(=O)COC(=O)COc3cc(C)cc(C)c3)CC2)cc1	-4.4	-9.5	1	8.2	0.7	1%	3	-2
CC(C)N(C(=O)Cn1cc(S(=O)(=O)CC(=O)NCc2ccccc2)c2ccccc21)C(C)C	-0.9	-1.2	-1	-5.9	0.3	-4%	4	10
O=C(NCCCN1CCOCC1)C(=O)N/N=C/c1ccc(F)cc1	4.4	-6.7	-11	0.3	0.5	3%	-1	-3
Cc1cc(=O)oc2cc(OCC(=O)NC3CC(C)(C)NC(C)(C)C3)ccc12	1.8	-4.5	-11	-3.2	-0.9	.	-6	-3
Cc1ccc(O)c(N=Cc2cc(Cc3ccccc3)cc([N+](=O)[O-])c2O)c1	-1.4	-16	98*	.	.	23%	.	-12
Cc1ccc(NS(=O)(=O)c2c(C)noc2C)cc1	0.0	0.1	8	-7.2	1.5	.	.	-1
COc1ccc(NC(=O)CN(C)CC(=O)c2[nH]c(C)c(C(C)=O)c2C)cc1	.	2.6	.	-2.4	0.2	.	-5	.
COc1cccc2c(=O)c3c([nH]c12)OC(C)(C)C3	0.6	-2.9	-2	1.3	0.2	.	.	-18
Cc1ccc(-n2nc(C(=O)O)cc2-c2ccccc2Cl)cc1	7.9	-3.3	2	1.8	0.3	.	-3	9
Cc1ccc(CNC(=O)/C=C/c2cccs2)cc1	4.0	3.0	-3	-0.4	-0.1	-7%	-14	-6
